Screening data (PubChem)
MT1-MMP act inh: blockers of MT1-MMP proenzyme processing, primary screen, HT1080 RFP-PRO-GFP cells, GFP/RFP fluorescence; Matrix metalloproteinase-14 (Homo sapiens), P50281; GFP/RFP ratio fluorescence, overnight; percent of plate control window, DMSO zero; GFP/RFP ratio change, % at 20 µM; hit rate 0.061% among 360,000;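 active = GFP/RFP ratio change of at least 30% with cell ATP level not reduced by more than half and red fluorescence within 50% of control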; note: strong numbers were not always called active
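Test system: HT1080 RFP-PRO-GFP cells; Benchmarks: DMSO and RFP-L50D-GFP cell wells; Timing: cells overnight before dosing, compound overnight, 37 °C, 5% CO2; Compound: one 20 µM compound dose with 1% DMSO; Read-out: GFP/RFP fluorescence ratio.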
eIF4H FP inh: human eIF4H binding inhibitors, primary screen, translation initiation inhibitor project, biochemical, uHTS, fluorescence polarization; Eukaryotic translation initiation factor 4H (Homo sapiens), Q15056; inhibition, % at 35 µM; AID 2012, 2009; hit rate 0.94% among 290,000; eIF4H fluorescence polarization binding assay;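 active = 50% or more with normal probe brightness, or confirmed in later tests; about a fifth of its hits are not listed in these tables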;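 note: calls also rest on retests at 20 µM and on dose response follow-up; 0% = protein and probe with vehicle and 100% = probe without protein; strong numbers were not always called active; many hits fall short of the cut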
PABP polyA inh: PABP poly(A) RNA binding inhibitors, primary screen, biochemical, fluorescence polarization, uHTS. inhibition, % at 35 µM. hit rate 1% among 290,000. AID 2014, 2009;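 active = 50% or more with normal probe brightness, or confirmed in later tests; about a fifth of its hits are not listed in these tables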;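 note: calls also rest on retests at 20 µM and on dose response follow-up; controls were probe without protein and protein plus probe with vehicle; some compounds called inactive have numbers as strong as hits; many hits fall short of the cut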
Target sequence (P11940 whole entry, looked up): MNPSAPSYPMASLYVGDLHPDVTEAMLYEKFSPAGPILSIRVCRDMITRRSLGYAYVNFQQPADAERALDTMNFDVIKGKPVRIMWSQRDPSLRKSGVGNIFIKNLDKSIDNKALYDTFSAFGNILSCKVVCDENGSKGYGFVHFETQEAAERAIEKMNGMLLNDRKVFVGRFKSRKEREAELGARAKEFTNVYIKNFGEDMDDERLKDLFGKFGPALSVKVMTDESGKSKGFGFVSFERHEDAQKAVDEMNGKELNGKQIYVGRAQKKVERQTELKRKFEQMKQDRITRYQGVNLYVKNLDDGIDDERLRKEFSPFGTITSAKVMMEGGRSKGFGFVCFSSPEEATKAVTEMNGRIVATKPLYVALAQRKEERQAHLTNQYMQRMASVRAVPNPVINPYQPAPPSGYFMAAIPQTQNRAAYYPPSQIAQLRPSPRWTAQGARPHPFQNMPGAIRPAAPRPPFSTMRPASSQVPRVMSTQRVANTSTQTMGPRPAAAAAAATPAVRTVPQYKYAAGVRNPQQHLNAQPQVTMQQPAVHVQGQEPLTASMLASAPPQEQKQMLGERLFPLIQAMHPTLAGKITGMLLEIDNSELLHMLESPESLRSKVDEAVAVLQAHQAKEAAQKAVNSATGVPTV
Yeast UUG start: modulators of yeast start codon fidelity, primary screen, whole organism, S. cerevisiae, single point, plate reader | S. cerevisiae UUG-firefly luciferase reporter, luminescence/redox ratio | hit rate 0.13% among 350,000 | activity score, % at 18.7 µM;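 active = replicate mean at a twofold rise or more, about +100% in these data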;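 note: firefly luciferase made from a UUG start codon reports start codon fidelity; reporter light over untreated wells divided by growth signal over untreated wells; some hits fall short of that in this replicate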
HIV Env fusion: inhibitors of HIV-1 Env-driven cell-cell fusion, primary screen, HeLa-JRFL effector, CEM21 target cells, luciferase; inhibition, % at 12.3 µM; hit rate 1.1% among 360,000;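 active = mean replicate inhibition score of at least 50 and every replicate individually at or above 50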;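 note: 0% = plate neutral controls and 100% = maraviroc near 300 nM; one replicate is shown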
Rce1 inh: yeast Rce1p protease inhibitors, primary screen, biochemical, fluorescence, cell-free homogeneous | yeast membranes, quenched prenylated peptide cleavage fluorescence | calls only | hit rate 0.27% among 290,000 | CAAX prenyl protease 2 (Saccharomyces cerevisiae (strain ATCC 204508 / S288c)), Q03530 | AID 2563, 2010;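 active = fall in fluorescence gain of 50% or more versus controls, with final raw signal at or below 3038400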;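 note: plate controls were neutral control wells for no effect and wells lacking membranes for full effect; tested at 10 µM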
CSC inhib: cancer stem cell viability inhibitors, primary screen, luminescence; cancer stem cell-like cells viability; inhibition, % at 7.5 µM; hit rate 1.1% among 300,000;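 active = mean at 75% or more and at least half the replicates too; tested in HMLE shEcad cells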;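 note: 0% = median of negative and 100% = median of positive control wells; the first replicate is given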
eIF4H FP inh retest: second read-out of eIF4H FP inh, no call of its own (marks repeat the call); inhibition, %; compound at 20 µM; confirmation average;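 mean of two retest wells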
PABP polyA inh retest: second read-out of PABP polyA inh, no call of its own (marks repeat the call); inhibition, %; compound at 20 µM; confirmation repeats;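 mean of two retest wells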
MT1-MMP act inh RFP: second read-out of MT1-MMP act inh, no call of its own (marks repeat the call); RFP signal change, %; measured here: RFP expression control read;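 0 = vehicle wells; hits needed this value within 50% of zero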
* hit, by the source's call; & = joins results of further samples.

Start of the listing, in advance (4 entries):
For FC(F)(F)c1nnc2ccc(Sc3ccccn3)nn12 the results were MT1-MMP act inh 2, eIF4H FP inh 7, PABP polyA inh 7, HIV Env fusion 17, CSC inhib 7 and MT1-MMP act inh RFP 6.
CCOc1ccc(-c2csc(/C(C#N)=C\c3ccc(O)c([N+](=O)[O-])c3)n2)cc1 was read as MT1-MMP act inh -2, eIF4H FP inh 58*, PABP polyA inh 0, Yeast UUG start -13, HIV Env fusion 30, Rce1 inh inactive, CSC inhib 108*, eIF4H FP inh retest 89*, PABP polyA inh retest 49 and MT1-MMP act inh RFP -37.
For CC1CCc2nc(N)c(C#N)c(-c3cccn3C)c2C1 (stereo unspecified) the results were MT1-MMP act inh -17, eIF4H FP inh 97*, PABP polyA inh 111*, Yeast UUG start -16, Rce1 inh inactive, CSC inhib -6 and MT1-MMP act inh RFP -4.
Screening CCOC(=O)C(Cc1ccccc1)C(=O)Nc1ccc(N(CC)CC)cc1 (stereo unspecified) returned MT1-MMP act inh -3, eIF4H FP inh -8, PABP polyA inh 4, HIV Env fusion 5, Rce1 inh inactive, CSC inhib 0 and MT1-MMP act inh RFP 0.

The whole of this part, previewed entries included:
For FC(F)(F)c1nnc2ccc(Sc3ccccn3)nn12 the results were MT1-MMP act inh 2, eIF4H FP inh 7, PABP polyA inh 7, HIV Env fusion 17, CSC inhib 7 and MT1-MMP act inh RFP 6.
CCOc1ccc(-c2csc(/C(C#N)=C\c3ccc(O)c([N+](=O)[O-])c3)n2)cc1 was read as MT1-MMP act inh -2, eIF4H FP inh 58*, PABP polyA inh 0, Yeast UUG start -13, HIV Env fusion 30, Rce1 inh inactive, CSC inhib 108*, eIF4H FP inh retest 89*, PABP polyA inh retest 49 and MT1-MMP act inh RFP -37.
For CC1CCc2nc(N)c(C#N)c(-c3cccn3C)c2C1 (stereo unspecified) the results were MT1-MMP act inh -17, eIF4H FP inh 97*, PABP polyA inh 111*, Yeast UUG start -16, Rce1 inh inactive, CSC inhib -6 and MT1-MMP act inh RFP -4.
Screening CCOC(=O)C(Cc1ccccc1)C(=O)Nc1ccc(N(CC)CC)cc1 (stereo unspecified) returned MT1-MMP act inh -3, eIF4H FP inh -8, PABP polyA inh 4, HIV Env fusion 5, Rce1 inh inactive, CSC inhib 0 and MT1-MMP act inh RFP 0.
Screening Cn1c(=O)c2cc(NC(=S)NCc3ccccc3F)ccc2n1Cc1ccc(F)cc1 returned MT1-MMP act inh -3, Yeast UUG start -25, HIV Env fusion 15 and MT1-MMP act inh RFP -16.
COc1ccc(CN(C)C[C@H]2OCc3cnnn3CCCC(=O)N([C@H](C)CO)C[C@@H]2C)cc1 was read as MT1-MMP act inh -1, Yeast UUG start -3&-12, HIV Env fusion 0 and MT1-MMP act inh RFP 3.
For COc1ccc(/C=N\NC(=O)c2sc(N)nc2C)cc1OC the results were MT1-MMP act inh 3, eIF4H FP inh -3, PABP polyA inh 4, Yeast UUG start -18, Rce1 inh inactive, CSC inhib -5 and MT1-MMP act inh RFP 0.
COc1ccc(N2CCN(C(=O)c3cc(=O)c4cc(C)c(C)cc4o3)CC2)cc1 was read as MT1-MMP act inh 5, eIF4H FP inh -8, PABP polyA inh 5, Yeast UUG start -6, HIV Env fusion -7, Rce1 inh inactive, CSC inhib -19 and MT1-MMP act inh RFP 5.
O=C(NCCc1ccccc1)C1CCC(CNS(=O)(=O)c2ccccc2)CC1 (stereo unspecified) was read as MT1-MMP act inh -2, eIF4H FP inh 1, PABP polyA inh 3, Yeast UUG start -9, HIV Env fusion 2, Rce1 inh inactive, CSC inhib 1 and MT1-MMP act inh RFP 2.
Screening NS(=O)(=O)c1ccc(NC(=O)COC(=O)CSCc2ccc(F)cc2)cc1 returned MT1-MMP act inh -4, Yeast UUG start -13, CSC inhib -6 and MT1-MMP act inh RFP 2.
`O=C1CN(c2ccccc2)C(=S)N1c1ccccc1` gave MT1-MMP act inh 5, eIF4H FP inh -7, PABP polyA inh 3, Yeast UUG start -1, HIV Env fusion -5, Rce1 inh inactive, CSC inhib -5 and MT1-MMP act inh RFP 4.
O=C1CCN(S(=O)(=O)c2ccc(Cl)cc2)CC1 was read as MT1-MMP act inh -1, eIF4H FP inh -1, PABP polyA inh -2, Yeast UUG start -1, HIV Env fusion 6, Rce1 inh inactive, CSC inhib -1 and MT1-MMP act inh RFP 4.
Screening COc1ccc(/C=C/CN2CCCC(C(=O)c3cc(F)ccc3F)C2)cc1 (stereo unspecified) returned MT1-MMP act inh 1, eIF4H FP inh 2, PABP polyA inh -2, HIV Env fusion 1, Rce1 inh inactive, CSC inhib 4 and MT1-MMP act inh RFP 3.
For N#C/C(C(=O)Oc1ccccc1)=C1\C=CC=CN1 the results were MT1-MMP act inh 3, eIF4H FP inh 2, PABP polyA inh -15, Yeast UUG start -14, Rce1 inh inactive, CSC inhib -13 and MT1-MMP act inh RFP 10.
Screening CC1(C)C(=O)N(c2ccccc2)C(=O)c2ccccc21 returned MT1-MMP act inh 0, HIV Env fusion 20, Rce1 inh inactive, CSC inhib -9 and MT1-MMP act inh RFP -3.
Screening Cc1onc(C(=O)N2CCN(Cc3ccccc3)CC2)c1[N+](=O)[O-] returned MT1-MMP act inh -1, eIF4H FP inh 5, PABP polyA inh 1, Yeast UUG start 4, HIV Env fusion 3, Rce1 inh inactive, CSC inhib -14 and MT1-MMP act inh RFP 1.
For COc1ccc(NC2=CC(=O)CC(C)(C)C2)cc1 the results were MT1-MMP act inh 1, eIF4H FP inh -2, PABP polyA inh 2, Yeast UUG start 0, HIV Env fusion 6, Rce1 inh inactive, CSC inhib 0 and MT1-MMP act inh RFP -2.
Cc1c(Br)c(C(=O)NCc2cc3cc(Cl)ccc3[nH]2)nn1C was read as MT1-MMP act inh -14, eIF4H FP inh 12, PABP polyA inh -4, HIV Env fusion 11, Rce1 inh inactive, CSC inhib 28 and MT1-MMP act inh RFP -8.
C=C[C@@H](C)N(Cc1ccc(OC)cc1)S(=O)(=O)N(Cc1ccccc1)[C@H](C=C)C(C)C was read as MT1-MMP act inh -2, Yeast UUG start -8, HIV Env fusion 89*, CSC inhib 12 and MT1-MMP act inh RFP -19.
Screening COCc1cccc(-c2csc(C(NC(C)=O)c3ccccc3)n2)c1 (stereo unspecified) returned MT1-MMP act inh -1, Yeast UUG start -12, HIV Env fusion -34 and MT1-MMP act inh RFP 0.
Screening NC(=O)C1CCN(C(=O)CCc2ccsc2)CC1 returned MT1-MMP act inh 2, eIF4H FP inh 4, PABP polyA inh 10, Yeast UUG start -17, HIV Env fusion 0, Rce1 inh inactive, CSC inhib 0 and MT1-MMP act inh RFP 5.
For O=[N+]([O-])c1ccc2cn(C3OC(CO)C(O)C3O)nc2c1 (stereo unspecified) the results were MT1-MMP act inh 1, Yeast UUG start -11, HIV Env fusion -4 and MT1-MMP act inh RFP 5.
Screening O=C(CSCc1ccc(F)cc1)NCc1ccc2c(c1)OCO2 returned MT1-MMP act inh 2, eIF4H FP inh -5, PABP polyA inh -9, HIV Env fusion 5, Rce1 inh inactive, CSC inhib -1 and MT1-MMP act inh RFP 5.
CCN1CCN(c2cc(C)c3cc(NC(=S)NCCCN4CCc5ccccc5C4)ccc3n2)CC1 was read as MT1-MMP act inh 1, eIF4H FP inh 3, PABP polyA inh -8, Yeast UUG start -24, HIV Env fusion 0, Rce1 inh inactive, CSC inhib 37 and MT1-MMP act inh RFP -1.
`CCOC(=O)c1ccc(S(=O)(=O)N2CCNCC2)cc1` gave MT1-MMP act inh 0, eIF4H FP inh 5, PABP polyA inh 69, Yeast UUG start -22, HIV Env fusion 3, Rce1 inh inactive, CSC inhib -9, eIF4H FP inh retest -4, PABP polyA inh retest -6 and MT1-MMP act inh RFP 5.
Screening Cc1cc(NS(=O)(=O)c2ccc(NC(=O)C(C)Oc3cccc(C)c3C)cc2)nc(C)n1 (stereo unspecified) returned MT1-MMP act inh 3, eIF4H FP inh -9, PABP polyA inh -6, Yeast UUG start 2, HIV Env fusion -20, Rce1 inh inactive, CSC inhib -5 and MT1-MMP act inh RFP -3.
CCc1cc(C(=O)NNC(=S)NCC2CCCO2)cs1 (stereo unspecified) was read as MT1-MMP act inh 5, eIF4H FP inh 2, PABP polyA inh 1, Yeast UUG start -12, HIV Env fusion -11, Rce1 inh inactive, CSC inhib -6 and MT1-MMP act inh RFP -4.
Screening CCc1ccccc1NC(=O)c1cc2sccc2n1C returned MT1-MMP act inh 0, eIF4H FP inh 1, PABP polyA inh 0, Yeast UUG start -21, HIV Env fusion -26, Rce1 inh inactive, CSC inhib -3 and MT1-MMP act inh RFP -5.
`CCOC(=O)N1[C@@H]2C=C(C)[C@@H]2[C@@H]2[C@@H](C)C(=O)N21` gave MT1-MMP act inh 0, eIF4H FP inh -8, PABP polyA inh -4, Yeast UUG start 1, HIV Env fusion 11, Rce1 inh inactive, CSC inhib -7 and MT1-MMP act inh RFP 3.
Screening CN(C)CCCOc1ccc(C(C)(C)c2ccccc2)cc1 returned MT1-MMP act inh -12, eIF4H FP inh -1, PABP polyA inh -1, Yeast UUG start -14, HIV Env fusion 5, Rce1 inh inactive, CSC inhib 44 and MT1-MMP act inh RFP -7.
For O=C1c2ccccc2C(=O)N1OCCOCCOCCON1C(=O)c2ccccc2C1=O the results were MT1-MMP act inh 2, eIF4H FP inh 9, PABP polyA inh -2, Yeast UUG start 4, HIV Env fusion -5, Rce1 inh inactive, CSC inhib 8 and MT1-MMP act inh RFP 3.
Screening COc1cccc(/C=C/C(=O)OCC(=O)N(C)CC(=O)Nc2ccccc2Cl)c1OC returned MT1-MMP act inh 1, Yeast UUG start -6, HIV Env fusion -10 and MT1-MMP act inh RFP 5.
For CCOC(=O)c1cnc(-n2cc(C)cn2)nc1Nc1ccccc1OCC the results were MT1-MMP act inh -2, eIF4H FP inh -1, PABP polyA inh 10, Yeast UUG start -17, HIV Env fusion 0, Rce1 inh inactive, CSC inhib 11 and MT1-MMP act inh RFP 2.
Screening COc1cc(C(=O)N2CCN(S(=O)(=O)c3cccs3)CC2)cc(OC)c1C returned MT1-MMP act inh 2, eIF4H FP inh 9, PABP polyA inh 5, HIV Env fusion -12, Rce1 inh inactive, CSC inhib 1 and MT1-MMP act inh RFP 1.
`Cc1cccc(NC(=O)CSc2c3c(nc4ccccc24)CCC3)n1` gave MT1-MMP act inh -7, eIF4H FP inh 3, PABP polyA inh 28, HIV Env fusion 8, Rce1 inh inactive, CSC inhib 1 and MT1-MMP act inh RFP -6.
COc1ccc(NC(=O)NCCc2cccc(Cl)c2)cc1OC was read as MT1-MMP act inh 2, eIF4H FP inh 1, PABP polyA inh -2, HIV Env fusion -25, Rce1 inh inactive, CSC inhib -3 and MT1-MMP act inh RFP 5.
Screening Cc1occc1C(=O)Nc1nnc(-c2cccs2)s1 returned MT1-MMP act inh 1, eIF4H FP inh -1, PABP polyA inh -1, HIV Env fusion -79, Rce1 inh inactive, CSC inhib 1 and MT1-MMP act inh RFP 5.
`CCCCCCN1C=CC=C/C1=C/C=C(C#N)C#N` gave MT1-MMP act inh -102, eIF4H FP inh 3, PABP polyA inh 3, HIV Env fusion 11, Rce1 inh inactive, CSC inhib 5 and MT1-MMP act inh RFP -2.
For Cc1ccc(C(=O)N/C(=C\c2ccc(F)cc2)C(=O)NCCCn2ccnc2)cc1 the results were eIF4H FP inh 8, PABP polyA inh 0, Yeast UUG start -3, HIV Env fusion 0 and Rce1 inh inactive.
